Bioassay records from PubChem BioAssay.
supercomplex: modulators of mitochondrial supercomplex assembly, cell-based, luminescence, Hoechst nuclei count (AID 1645838). Cells, luminescence/Hoechst cell count ratio, supercomplex reporter; hits give high values. 2,000 tested, 5% active. z-score at 11 µM unless noted;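 active means mean z-score of two plates above 1.96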;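 further: control cybrid cells; higher means more mitochondrial supercomplex formation; U2OS-based cells read after two days; 0 = mean of sample wells on the plate; doses worked out from stocks diluted about 900-fold with the highest of each compound shown; many of its hits are not listed in these tables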
supercomplex cell count: also measured in supercomplex; calls as there; cell count; measured here: cell number, Hoechst nuclei count;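 nuclei per well as mean of two plates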
The depositor's hits bear a star; i = inactive; . = not tested or not shown. A portion of the library; rates above refer to the full screens.

Sample of the layout, 7 compounds:
[1] CNCc1ccc(-c2[nH]c3cc(F)cc4c3c2CCNC4=O)cc1
[2] CC1(C)C(OC2OC(C(=O)O)C(O)C(O)C2OC2OC(C(=O)O)C(O)C(O)C2O)CC[C@@]2(C)C1CC[C@]1(C)C2C(=O)C=C2C3C[C@@](C)(C(=O)O)CC[C@]3(C)CC[C@]21C (stereo partly drawn)
[3] c1cn2cc(-c3ccc4cn[nH]c4c3)nc(Nc3ccc(N4CCOCC4)cc3)c2n1
[4] COc1cc2c(NC3CCN(CC4CCCCC4)CC3)nc(N3CCCN(C(C)C)CC3)nc2cc1OCCCN1CCCCC1
[5] CN(C)C(=O)c1cc2cnc(Nc3ccc(N4CCNCC4)cn3)nc2n1C1CCCC1
[6] CNc1nc(Nc2cnn(C3CCN(C4COC4)CC3F)c2Cl)ncc1C(F)(F)F (stereo not drawn)
[7] CC(C)C1C(=O)N(S(C)(=O)=O)[C@H]2CCN(C(=O)C=CCN3CCCCC3)[C@H]12 (stereo partly drawn)
Assay by compound,1,2,3,4,5,6,7
supercomplex,-0.47,-0.5,0.34,i,2.3*,-0.4,-0.37
supercomplex cell count,4746,6910,3253,.,3844*,5845,6091

The whole of this part, previewed entries included:
[1] CNCc1ccc(-c2[nH]c3cc(F)cc4c3c2CCNC4=O)cc1
[2] CC1(C)C(OC2OC(C(=O)O)C(O)C(O)C2OC2OC(C(=O)O)C(O)C(O)C2O)CC[C@@]2(C)C1CC[C@]1(C)C2C(=O)C=C2C3C[C@@](C)(C(=O)O)CC[C@]3(C)CC[C@]21C (stereo partly drawn)
[3] c1cn2cc(-c3ccc4cn[nH]c4c3)nc(Nc3ccc(N4CCOCC4)cc3)c2n1
[4] COc1cc2c(NC3CCN(CC4CCCCC4)CC3)nc(N3CCCN(C(C)C)CC3)nc2cc1OCCCN1CCCCC1
[5] CN(C)C(=O)c1cc2cnc(Nc3ccc(N4CCNCC4)cn3)nc2n1C1CCCC1
[6] CNc1nc(Nc2cnn(C3CCN(C4COC4)CC3F)c2Cl)ncc1C(F)(F)F (stereo not drawn)
[7] CC(C)C1C(=O)N(S(C)(=O)=O)[C@H]2CCN(C(=O)C=CCN3CCCCC3)[C@H]12 (stereo partly drawn)
[8] Cc1ncc(-c2ccnc(Nc3ccc(S(C)(=O)=O)cc3)n2)n1C(C)C
Assay by compound,1,2,3,4,5,6,7,8
supercomplex,-0.47,-0.5,0.34,i,2.3*,-0.4,-0.37,i
supercomplex cell count,4746,6910,3253,.,3844*,5845,6091,.

[9] CN1C(=O)NC(Cc2c[nH]c3c(Cl)cccc23)C1=O (stereo not drawn)
[10] CN(C)N(C)C(=O)[C@@]1(Cc2ccccc2)CCCN(C(=O)C(Cc2c[nH]c3ccccc23)NC(=O)C(C)(C)N)C1 (stereo partly drawn)
[11] CCc1cc2c(cc1N1CCC(N3CCOCC3)CC1)C(C)(C)c1[nH]c3cc(C#N)ccc3c1C2=O
[12] COCCCOc1cc(CC(CC(N)C(O)CC(C(=O)NCC(C)(C)C(N)=O)C(C)C)C(C)C)ccc1OC (stereo not drawn)
[13] Oc1cc(-c2nc(-c3ccccc3)[nH]c2-c2ccncc2)ccc1Cl
[14] Nc1ncnc2c1c(-c1ccc(Oc3ccccc3)cc1)cn2C1CCCC1
[15] NS(=O)(=O)c1ccc(N2CCCCS2(=O)=O)cc1
[16] CC#CCn1c(N2CCCC(N)C2)nc2c1c(=O)n(Cc1nc(C)c3ccccc3n1)c(=O)n2C (stereo not drawn)
Assay by compound,9,10,11,12,13,14,15,16
supercomplex,-0.084,-0.31,1.4,0.46,i,0.25,0.27,-0.13
supercomplex cell count,7704,6728,2728,6584,.,3656,4655,5768

[17] O=C(O)c1ccccc1NC(=O)N1CCC(c2ccccc2C(F)(F)F)CC1
[18] COCCOc1ccc2c(c1)ncn2-c1ccc2cccc(N3CCC(N)CC3)c2n1
[19] O=C(O)c1ccc(Nc2ncc3c(n2)-c2ccc(Cl)cc2C(c2c(F)cccc2F)=NC3)cc1
[20] CCN(CC)CCN(Cc1ccc(-c2ccc(C(F)(F)F)cc2)cc1)C(=O)Cn1c(SCc2ccc(F)cc2)nc(=O)c2c1CCC2
[21] CCOc1nc2cccc(C(=O)O)c2n1Cc1ccc(-c2ccccc2-c2noc(=O)[nH]2)cc1
[22] COc1ccc(-c2ccc3c(N4CCOCC4C)nc(N4CCOCC4C)nc3n2)cc1CO (stereo not drawn)
[23] Cc1ccccc1N1CCN(CCc2nnc3n2CCCC3)CC1
Assay by compound,17,18,19,20,21,22,23
supercomplex,-0.28,i,i,i,-0.064,i,-0.92
supercomplex cell count,5652,.,.,.,5695,.,5562
